# gsp antagonist – qHTS for Antagonists of gsp, the Etiologic Mutation Responsible for Fibrous Dysplasia/McCune-Albright Syndrome: qHTS. gsp-mutant cells, cAMP HTRF, 30 min; control for the full effect not named in the record. Potency, µM (titrated, usually from 76.9 µM), for the others: top-dose activity change, negative = inhibition, most hits filed as inhibitors. 340,000 tested, 0.4% active; active = falling curve of any shape with a large fitted effect; inconclusive = falling curve, mostly with a smaller effect; inactive = flat or rising curve; cell line not stated here;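 further: intracellular cAMP measured with PDE inhibitor Ro 20-1724 present during compound exposure; potency means the concentration at half of the fitted maximal effect; on the % scale 0 is the no-effect control and ±100 the full control effect; nearly all actives have a fitted effect of over 65% in size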
#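 Measurement of cellular cAMP by homogeneous time-resolved fluorescence following a 30 min compound exposure at 37C. The PDE inhibitor […] was present throughout; the assay buffer was DPBS with 0.05% BSA and 0.005% Tween 20.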
# PINK1 expr mod – A Quantitative High throughput Screen to Identify Chemical Modulators of PINK1 Expression; PINK1 immunofluorescence, high-content cytometry, 24 h; Potency, µM (top dose mostly 76.6 µM), without a hit: at the top dose activation (PINK1 increase), hits mostly activators; 410,000 tested, 0.2% active; active = well fitted activation curve with a large enough effect; inconclusive = small, poorly fitted or top-dose-only effect; inactive = flat fitted curve, though single readings scatter; cell line not stated here;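 further: potency means the concentration at half of the fitted maximal effect; % of control where 0% means no effect; nearly all actives have a fitted effect of over 65% in size; a mitochondrial uncoupler was the plate control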
#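 A stable cell line was treated with compounds at 5 concentrations for 24 hours, with CCCP as control. PINK1 levels and mitochondrial localization were measured by immunofluorescence with mitochondrial, cell and nuclear markers after fixation, read by laser-scanning cytometry.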
# ClpP mod – qHTS Assay for Activators of ClpP. ATP-dependent Clp protease proteolytic subunit (Bacillus subtilis (strain 168)), P80244. purified B. subtilis ClpP, FRET peptide cleavage, 20 min. Potency, µM (doses to about 57.5 µM), without a hit: at the highest dose activity change, negative = active. 340,000 tested, 1.9% active; active = well fitted falling curve with a large enough effect; inconclusive = small, poorly fitted or top-dose-only effect; inactive = no such curve, though single readings can be large or run the other way; further: potency means the concentration at half of the fitted maximal effect; the source files actives as falling curves though it sought activators and does not explain the sign; nearly all actives have a fitted effect of over 65% in size; many hits overshoot -100%
# Target sequence (P80244 whole entry, looked up): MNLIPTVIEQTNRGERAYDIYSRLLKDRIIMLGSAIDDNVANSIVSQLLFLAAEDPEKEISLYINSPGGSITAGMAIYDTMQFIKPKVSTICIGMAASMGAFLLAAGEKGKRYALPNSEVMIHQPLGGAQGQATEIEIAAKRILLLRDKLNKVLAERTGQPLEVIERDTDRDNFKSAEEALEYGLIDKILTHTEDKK
#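 Purified B. subtilis ClpP, 10 microg/mL final in Tris/HCl pH8 with KCl, BSA, glycerol and Tween-20, cleaved an Abz/nitrotyrosine-quenched decapeptide. Fluorescence (ex 320, em 430) was read at 0 and 20 min at room temperature. Delta was normalized to 5.8 microM ADEP and DMSO/no-enzyme controls.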
# Sfp inh – qHTS Assay for Inhibitors of Bacillus subtilis Sfp phosphopantetheinyl transferase (PPTase) | 4'-phosphopantetheinyl transferase ffp (Bacillus subtilis), Q9F4F7 | Biochemical Sfp PPTase activity, qHTS | Potency, µM, for inactives: max response, negative = inhibition, actives largely listed as inhibitors | 310,000 tested, 3.5% active; active means well fitted inhibition curve with a large enough effect; inconclusive means small, poorly fitted or top-dose-only effect, or another doubt; inactive means no such curve, though single readings can be large or run the other way;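 further: the enzyme is Sfp with the accession as filed and its product quenches rhodamine fluorescence; potency means the concentration at half of the fitted maximal effect; 0% = enzyme reaction without inhibitor and -100% = no enzyme wells; top concentration of the series not given in the record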
#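 Fluorescence-quenching assay with 15 nM Sfp, 5 uM rhodamine-CoA and 12.5 uM BHQ-2-labelled ybbR peptide in pH 7.6 Hepes/MgCl2 buffer. Enzyme was pre-incubated with compound for 15 min at room temperature. Rate was taken from the 30-min fluorescence change (525/598 nm).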
# gsp agonist – qHTS for Agonist of gsp, the Etiologic Mutation Responsible for Fibrous Dysplasia/McCune-Albright Syndrome: qHTS; AID 624287, 2012; gsp mutant cells, cAMP HTRF, 30 min; control for the full effect not named in the record; Potency, µM (highest dose often 76.9 µM), without a hit: at the highest dose activation (cAMP increase), actives largely listed as activators; 340,000 tested, 0.13% active; active = well fitted activation curve with a large enough effect; inconclusive = small, poorly fitted or top-dose-only effect, or another doubt; inactive = no such curve, though single readings can be large or run the other way; cell line not stated here;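 further: phosphodiesterase inhibitor Ro 20-1724 added with compounds to block cAMP breakdown; potency means the concentration at half of the fitted maximal effect; nearly all actives have a fitted effect of over 60% in size; about a fifth of the inactives were tested at one dose only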
#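 Cells stably selected in G418 were plated at 2000/well, grown 16-24 hr, then given compounds in DMSO with the PDE inhibitor […] (300 uM solution added) for 30 min at 37C; cAMP was read by HTRF.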
# Menin-MLL FL inh – qHTS Assay for Inhibitors Targeting the Menin-MLL Interaction in MLL Related Leukemias: Competition With Fluorescein Labeled MLL-derived Peptide | Fluorescence polarization, fluorescein-MLL peptide displacement from menin | FP activity change, % at 61.4 µM | 290,000 tested, under 10 active | AID 1766, 2009; inconclusive = falling polarisation curve, or a change in total fluorescence; inactive = total fluorescence flat and polarisation flat or rising; no compound was filed as active; the % refers to the polarisation; negative = inhibition;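 further: % of control where 0% means no effect; inhibitors lower the polarisation; unlabelled MLL peptide was the positive control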
# D2 ag – Beta-Arrestin HTS for Positive Allosteric Modulators of the Human D2 Dopamine Receptor: Agonists | activation, % (test concentration not listed) | AID 624465, 2012 | 360,000 tested, 0.084% active | D(2) dopamine receptor (Homo sapiens), P14416 | DiscoveRx PathHunter D2 beta-arrestin, luminescence, 90 min; 100% = 57 uM dopamine signal; in the data active = activation above about 40%; inconclusive = about 15% to 40%; inactive = below about 15%; further: compound concentration not given in the record; the text of the record calls up to 30% inactive
# Target sequence (P14416 whole entry, looked up): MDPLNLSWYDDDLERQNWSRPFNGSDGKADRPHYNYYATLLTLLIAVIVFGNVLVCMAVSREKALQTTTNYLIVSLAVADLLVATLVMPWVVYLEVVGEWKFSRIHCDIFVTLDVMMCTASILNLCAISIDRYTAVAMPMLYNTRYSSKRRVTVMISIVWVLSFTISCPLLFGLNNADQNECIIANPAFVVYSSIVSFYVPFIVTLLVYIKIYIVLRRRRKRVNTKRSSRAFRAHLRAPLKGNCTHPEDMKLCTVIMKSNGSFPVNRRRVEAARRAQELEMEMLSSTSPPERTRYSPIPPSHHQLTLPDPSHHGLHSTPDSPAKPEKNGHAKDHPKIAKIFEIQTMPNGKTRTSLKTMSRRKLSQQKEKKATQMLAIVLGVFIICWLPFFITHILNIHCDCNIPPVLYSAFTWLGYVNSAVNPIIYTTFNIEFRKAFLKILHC
#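 Agonist mode: compounds alone added to overnight-plated D2 PathHunter cells for 90 min at 37 C, with 57 uM final dopamine (EC100) defining full response. Beta-arrestin recruitment detected by chemiluminescent reagent, read after 1 h at ambient temperature.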
# Active calls of the source: *; ? = inconclusive; / = not tested or not shown; [ ] = dose if it differs, or a comment.
molecule	gsp antagonist	D2 ag	gsp agonist	Sfp inh	Menin-MLL FL inh	ClpP mod	PINK1 expr mod
Cc1cc2cc(CCNS(=O)(=O)c3ccc(F)cc3)c(=O)[nH]c2cc1C	-6%	-3.4	?	13%	0.0	/	-3.0%
CC(C)CCNC(=O)c1onc(CSc2nc3ccccc3[nH]2)c1C(=O)NCCC(C)C	-15%	-1.3	/	14%	4.7	3.4%	3.0%
Cc1cc(C)c(/C=C(\C#N)S(=O)(=O)c2ccccc2)[nH]1	6%	-1.3	-9%[15.4 µM]	19%	4.6	/	8.9%
O=C1C[C@@H]2c3c(cccc3CN1Cc1ccccc1Cl)C[C@@H](O)[C@H]2O	3%	2.5	1%	/	/	1.3%	-0.9%
O=C(NCCSc1ncc(-c2ccc(F)cc2)[nH]1)c1ccco1	9%	-4.8	-7%[15.4 µM]	/	/	0.1%	0.7%
N#C/C(=C/c1cc(Cl)c(O)c(Cl)c1)C(=O)N1CCCCC1	?	2.3	9%[15.4 µM]	3%	3.5	-0.3%	2.5%
CC(C)(C)C(=O)NC(CC(=O)O)c1ccccc1 (centres undefined)	4%	0.7	0%	15%	-0.8	/	-1.4%
NNC(=O)c1ccncc1	-1%	-3.1	/	?	3.9	0.0%	1.0%
Cc1ccc(S(=O)(=O)Nc2cc(C)c(O)c(Sc3n[nH]c(C)n3)c2)cc1	-4%	9.3	-13%[15.4 µM]	71µM*	-0.7	/	2.0%
CCCC(=O)Nc1cc(-c2nc3ncccc3o2)ccc1Cl	5%	6.0	-38%	9%	2.1	/	1.3%
O=C(CCl)NNC(=O)c1c(O)c2ccccc2[nH]c1=O	-4%	-3.4	-12%[15.4 µM]	22%	4.3	/	4.6%
c1ccc(CCc2nc(-c3ccccn3)no2)cc1	-7%	-2.0	2%	6%	3.6	0.4%	0.4%[38.3 µM]
O=C1c2cccnc2C(Nc2ccc(Cl)cc2)N1Cc1cccs1 (centres undefined)	-1%	-2.9	2%[15.4 µM]	-2%	-0.7	/	0.2%
O=c1c2nccnc2[nH]c(=S)n1Cc1ccccc1	5%	-3.0	13%	-21%	1.5	/	1.7%
O=C(Cn1c(-c2ccccc2)noc1=O)NCc1ccccc1	2%	-0.4	-2%	4%	-0.1	-0.5%	4.4%[38.3 µM]
COc1nccnc1NS(=O)(=O)c1ccc(NS(=O)(=O)c2ccc(NC(C)=O)cc2)cc1	5%	-1.5	0%	3%	-0.3	1.3%	1.3%
CCOc1ccccc1CNS(=O)(=O)c1cc(-c2cc(C)no2)ccc1C	-8%	8.3	9%	7%	/	-0.2%	0.3%
Cc1c(/C=N/O)c2ccccn2c1C(=O)c1ccc(F)cc1	6%	1.8	7%[15.4 µM]	-5%	-1.0	0.8%	-1.1%
Cc1ccc(NS(=O)(=O)c2cccc(C(=O)NCCCn3ccnc3)c2)cc1	3%	1.4	?	/	/	-0.8%	-4.5%
COc1ccccc1OCC(=O)Nc1c2c(nn1-c1ccccc1)CS(=O)(=O)C2	8%	-4.7	-8%	0%	/	-1.3%	0.5%
O=C(NC12CC3CC(CC(C3)C1)C2)N1CCC(O)(c2ccc3c(c2)OCO3)CC1	10%	-2.7	-8%	-2%	-1.3	-3.5%	3.5%[38.3 µM]
COC(=O)c1ccccc1S(=O)(=O)N1CCC(c2nc3ccccc3o2)CC1	-9%	-4.0	-62%[inhibitor]	12%	-0.9	0.8%	2.3%
C=CCNC(=O)COc1cc(C)cc(C)c1C	11%	-2.6	29%	-3%	-0.7	-1.3%	0.7%
COC(=O)C1(C)NC(c2ccc(O)cc2)C2C(=O)N(c3ccc4c(c3)OCCO4)C(=O)C21 (centres undefined)	5%	0.8	6%	10%	3.8	-0.4%	0.1%
COC(=O)C1C(=O)CC(C)(O)C(C(=O)OC)C1c1ccccc1F (centres undefined)	11%	-3.2	0%	23%	0.6	2.0%	-1.7%
Cc1ccc(S(=O)(=O)Cn2nnnc2CN2CCN(Cc3ccc4c(c3)OCO4)CC2)cc1	-5%	-0.3	2%	12%	3.0	0.6%	0.2%
CC(C)c1nnc(NC(=O)CCC(=O)N2CCN(C3c4ccccc4-c4ccccc43)CC2)s1	6%	-1.6	-38%[inhibitor]	23%	3.4	-6.3%	-1.5%
COc1ccc(C2=CC(c3ccco3)n3ncnc3N2)cc1 (centres undefined)	-12%	-1.9	-2%	-45%	?	/	2.4%
O=C(NNS(=O)(=O)c1ccc(F)cc1)c1cc2ccccc2cc1O	-12%	0.9	-37%[15.4 µM]	19%	3.9	/	0.0%
C=CCNC(=S)NNC(=O)c1ccc(OCCC)cc1	5%	-5.2	?	27%	4.1	8.0%	-1.2%
CC(=O)OCC1OC(Nc2cccc(C)c2)C(OC(C)=O)C(OC(C)=O)C1OC(C)=O (centres undefined)	7%	-4.6	13%	17%	-1.5	1.5%	2.4%
COc1ccccc1C1NC(=O)NC(C)=C1C(=O)OC1CCCC(C)C1 (centres undefined)	-11%	-2.6	-8%	24%	0.8	1.7%	4.1%
CCN1CCN(C(=O)C2(NC(=O)Nc3cccc(F)c3)CCCCC2)CC1	3%	-1.6	-27%	12%	1.7	-1.3%	-2.0%
COc1ccc(-c2noc(CCCC(=O)Nc3cccnc3)n2)cc1OC	-1%	-0.9	-10%	3%	0.4	/	1.6%
Cc1cc(C)n(-c2nc(C)nc(NCc3ccccc3)n2)n1	11%	-4.3	-1%	6%	-1.4	4.7%	0.8%
CC1CCCN(CCCNC(=O)C2CC(=O)N(c3ccc(F)c(Cl)c3)C2)C1 (centres undefined)	1%	-2.8	-1%	17%	0.7	-1.8%	16%[38.3 µM]
CC(C)c1nc2oc3c(NCc4cccnc4)ncnc3c2c2c1CCC2	5%	-1.5	-12%	3%	0.6	14µM*	-6.7%
C/C(=N/NC(=O)c1ccc(O)cc1)c1cccc([N+](=O)[O-])c1	-25%	-1.0	-24%[15.4 µM]	-7%	/	-4.0%	9.2%
COc1cccc(CNC(=O)Cc2c(C(=O)O)[nH]c3ccccc23)c1	6%	-2.2	-30%[inhibitor]	19%	0.4	?	?
CC(=O)Nc1cc(NC(=O)C2C3C=CC(C3)C2C(=O)O)ccc1Cl (centres undefined)	1%	-2.9	?	-1%	-3.8	3.4%	1.3%
CC1(C)Cc2nc3sc(C(=O)NCCCO)c(N)c3cc2CS1	0%	-2.3	2%[15.4 µM]	40µM*	-6.5	/	5.2%
N/C(=N\OC(=O)c1cccs1)c1cccc([N+](=O)[O-])c1	3%	42*	1%	9%	-4.8	/	0.0%
COc1ccc(C(=O)NCCN2C(=O)S/C(=C\c3cccnc3)C2=O)cc1[N+](=O)[O-]	-7%	-0.5	5%[15.4 µM]	?	-0.4	/	0.9%
COc1cc2cc(CN(CCCN3CCOCC3)Cc3nnnn3Cc3ccccc3)c(=O)[nH]c2cc1OC	8.9µM*	-5.5	4%[15.4 µM]	5%	-11	/	0.0%
O=C(CCS(=O)(=O)Cc1ccc(Cl)cc1)NCCCN1CCOCC1	9%	-3.3	-6%	6%	2.1	-0.7%	-2.3%[38.3 µM]
COC(=O)c1ccc(OC(=O)/C=C/c2ccco2)cc1	-6%	-4.8	?	-1%	-0.4	/	2.6%
O=C(NCc1ccccn1)c1cc2ccccc2oc1=O	4%	1.7	-42%[inhibitor]	-2%	0.4	32µM*	-0.7%
Clc1ccc(Cc2noc(Cc3ccccc3)n2)cc1Cl	14%	1.4	7%	2%	5.8	-1.5%	1.8%[38.3 µM]
CCOC(=O)C1(Cc2ccccc2Cl)CCN(S(C)(=O)=O)CC1	-13%	-0.5	11%[15.4 µM]	4%	0.1	-0.3%	-1.8%
COc1ccc(/C=C/C(=O)OCC(=O)NC2CCCC2)c(OC)c1	-8%	-5.0	0%	/	/	-10%	-1.1%

# Other entries follow:
molecule	gsp antagonist	D2 ag	gsp agonist	Sfp inh	Menin-MLL FL inh	ClpP mod	PINK1 expr mod
COCCCn1c(-c2cccc(Cl)c2)nc2c1c(=O)[nH]c(=O)n2Cc1ccccc1	-1%	-1.1	-6%[15.4 µM]	0%	/	/	-1.0%
Cc1onc(-c2ccccc2Cl)c1C(=O)Nc1cccc2nsnc12	11%	-0.1	?	15%	5.7	329%	7.5%
COc1ccc(N2CCn3c2nc2c3c(=O)n(CCCc3ccccc3)c(=O)n2C)c(OC)c1	?	2.1	16%	19%	2.4	-20%	4.7%[38.3 µM]
CCOC(=O)c1c(-c2ccccc2Cl)csc1NC(=O)c1cc(S(=O)(=O)N2CCOCC2)ccc1C	-5%	-5.9	-22%	?	5.6	-22%	1.6%
Cc1ccc(Nc2nnc(SCC(=O)c3ccc(Br)s3)s2)c(C)c1	-2%	-3.3	8%	2%	-0.6	-3.9%	-0.1%
Cc1nc2c(-c3ccc(Cl)cc3)cnn2c2c1CCC2	-7%	0.7	4%[15.4 µM]	2%	5.3	/	-1.8%
Cc1ccc(S(=O)(=O)N(C)C)cc1NC(=O)c1n[nH]c(=O)c2ccccc12	9%	-4.8	?	6%	1.0	-1.6%	1.2%
